Mtb growth = Mycobacterium tuberculosis H37Rv growth inhibition, cell based, confirmatory dose response (AID 1949). most inactive calls were filed without a number and no value below 0 was filed. inhibition, % at 10 µg/mL; hits with a dose series show IC50 in µg/mL. 100,000 tested, 1.6% active;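 active = confirmed in a dose series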;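 note: bacteria grown 7 days with compound before Alamar blue readout; 0% = untreated bacteria and 100% = reference antibiotic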
* hit, by the source's call; i = inactive.

nr | smiles | Mtb growth
1 | O=c1c([N+](=O)[O-])c(N2CCN(Cc3ccccc3Cl)CC2)c2ccccc2n1-c1ccccc1 | i
2 | CCCC(=O)N(Cc1cc2cc(C)ccc2[nH]c1=O)c1ccc(OC)cc1 | i
3 | OC(COc1ccc2c(c1)CCC2)CN1CCN(Cc2ccc3c(c2)OCO3)CC1 (stereo not drawn) | i
4 | COc1ccc(Cc2nnc(NC(=O)c3ccc([N+](=O)[O-])c(C)c3)s2)cc1 | i
5 | CCSc1nnc2n(CCc3ccccc3)c(=O)c3c(n12)-c1ccccc1CC31CCCCC1 | 16%
6 | O=c1cc(-c2ccc(-c3ccccc3)cc2)[nH][nH]1 | i
7 | CSc1ccc(C2C(C(=O)c3sc(C)nc3C)=C(O)C(=O)N2Cc2cccnc2)cc1 (stereo not drawn) | i
8 | CN(CC(=O)Nc1ccccc1Sc1ccccc1)S(=O)(=O)c1ccc(F)cc1 | i
9 | COc1cccc(N2C(=O)c3cccc4c([N+](=O)[O-])ccc(c34)C2=O)c1 | i
10 | COc1ccc(NC(=O)NNC(=O)C(O)(c2ccccc2)c2ccccc2)cc1 | i
11 | Cc1c(-c2ccccc2)nc2ccccc2c1C(=O)NC1CCCC1 | 2%
12 | COc1cccc(C2C(C(=O)c3ccco3)=C(O)C(=O)N2CCN(C)C)c1 (stereo not drawn) | i
13 | COc1c(S(=O)(=O)N2CCN(c3c(C)cccc3C)CC2)ccc(Cl)c1Cl | i
14 | CCn1c(CNC(=O)c2ccccc2Cl)nnc1SCC(=O)Nc1ccccc1F | i
15 | COc1cccc(C(=O)Nc2cccc(OCC(=O)c3ccccc3)c2)c1 | i
16 | COc1ccc(C)cc1NC(=O)c1ccc(C)cc1C | 20%
17 | CC1=C(C(=O)Nc2ccccn2)C(c2cccs2)C2=C(CCCC2=O)N1 (stereo not drawn) | i
18 | O=C(CCCc1c[nH]c2ccccc12)NCCSc1ccccc1 | i
19 | COc1ccc(OC)c(/C=C(\C#N)c2nn(CCO)c(N)c2C#N)c1 | 0%
20 | O=C(NCc1ccc2c(c1)OCO2)c1ccc(Cl)c(S(=O)(=O)N2CCOCC2)c1 | i
21 | COC(=O)c1sc2cc(NC(=S)NCCCN3CCCC3=O)ccc2c1Cl | i
22 | O=C(COc1ccc2ccccc2c1Br)N1CCOCC1 | i
23 | Fc1ccccc1-n1c(-c2ccc3ccccc3n2)n[nH]c1=S | 8%
24 | Cc1ccc2cccc(NC(=O)c3cc4ccccc4o3)c2n1 | 6%
25 | CC(C)CNC(=O)C1CCN(S(C)(=O)=O)CC1 | i
26 | Cc1ccc(C(=O)CSc2nc3ccccc3o2)cc1[N+](=O)[O-] | 0%
27 | COc1cc2sc(NC(=O)c3ccc(C#N)cc3F)nc2cc1Cl | i
28 | Cc1cc(Oc2coc3cc(O)ccc3c2=O)cc(C)c1Cl | 0%
29 | NC(=O)c1ccccc1NC(=O)C1CCCC1 | i
30 | CCOC(=O)C(=O)Nc1nc2c(s1)CCCC2 | i
31 | Cc1ccc(NC(=S)NCc2ccc(Cl)cc2)c(C)c1 | 4%
32 | COc1ccc(S(=O)(=O)N(C)CC(=O)Nc2cccc3ccccc23)cc1OC | i
33 | CC(C)CN1C(=O)c2ccc(N)cc2C1=O | i
34 | CCOC(=O)c1ccc(NC(=O)CSc2nnc(-c3cccnc3)n2C)cc1 | i
35 | N#Cc1cc2c(nc1SCC(=O)Nc1ccccc1C(F)(F)F)CCCC2 | 8%
36 | Cc1ccc(-c2nn(CCC(=O)NCCN3CCOCC3)c(=O)c3ccccc23)cc1 | i
37 | COc1ccc(C2c3c(-c4ccccc4)n[nH]c3C(=O)N2c2ccccc2)cc1OC (stereo not drawn) | i
38 | Cc1scc(C(=O)N2CCN(c3ncccn3)CC2)c1-c1ccccc1 | 1%
39 | Cc1ccc(O)c(NC(=S)Nc2ccccc2)c1 | i
40 | CC(=O)c1cc2cc(Cl)ccc2oc1=O | i
41 | COc1ccc(C(C)NC(=O)c2ccoc2C)cc1OC (stereo not drawn) | i
42 | O=C(NCCNc1ccc([N+](=O)[O-])cc1)c1ccco1 | i
43 | C=CCn1c(/C=C/c2ccccc2OC)nc2ccccc21 | i
44 | C=CCNC(=O)COc1cc(C)c(Cl)c(C)c1 | i
45 | COc1ccccc1NC(=O)CSc1nc(N)cc(N)n1 | i
46 | COC(=O)Cc1ccc(NC(=S)Nc2cc(OC)ccc2OC)cc1 | i
47 | CCOc1ccc(NC(=O)CSc2nnc(C)n2-c2ccc(C)c(C)c2)cc1 | i
48 | N#Cc1nc(-c2cccs2)oc1N1CCOCC1 | i
49 | CCOc1ccccc1NC(=O)C1=C(C)NC(=S)NC1c1ccccc1C (stereo not drawn) | i
50 | N#Cc1ccc(C(=O)Nc2ccc3c(c2)OCCO3)c(F)c1 | i

Additional structures.
nr | smiles | Mtb growth
51 | O=C(CSc1nnc(-c2cccc(Br)c2)o1)c1ccc2ccccc2c1 | i
52 | CCc1ccc(N(CC(=O)O)S(C)(=O)=O)cc1 | i
53 | COC(=O)c1c(NC(=O)c2ccc(C)o2)sc(C)c1C | i
54 | Cc1cccc(NC(=O)C2CC(=O)n3cnnc3S2)c1 (stereo not drawn) | i
55 | OCCNCc1ccc(OC2CCCC2)cc1 | i
56 | Cc1nn2c3c(cnc2c1-c1ccccc1)C(=O)CC(C)(C)C3 | i
57 | c1ccc(-c2ccccc2OCCCCN2CCOCC2)cc1 | 7%
58 | CC(C)(C)c1ccc(OC(=O)C2CCC(N3C(=O)C4CCCCC4C3=O)CC2)cc1 (stereo not drawn) | i
59 | CC(=O)c1cccc(NC(=O)NCc2cccs2)c1 | i
60 | NC(=O)c1c(NC(=O)COc2ccc3ccccc3c2)sc2c1CCCCC2 | i
61 | NC(=O)C(CNS(=O)(=O)c1ccc(Cl)cc1)Sc1ncccn1 (stereo not drawn) | i
62 | Nc1nc(SCC(=O)N2CCc3ccccc32)n[nH]1 | i
63 | Cc1ccc(S(=O)(=O)c2nc(NCCN(C)C)sc2Cl)cc1 | i
64 | O=c1c2c3c(sc2nc2sc(CN4CCCCC4)cn12)CCCC3 | i
65 | CC1CCN(CCN2CCn3c2nc2ccccc23)CC1 | i
66 | Cc1ccc(C(=O)Nc2ccc([N+](=O)[O-])c(NC(=O)c3ccc(C)c(C)c3)c2)cc1C | i
67 | Cc1ccc(Cn2c(C(C)(C)C)nc3ccccc32)cc1 | 1%
68 | Cc1ccc(C(C)C)cc1OCCCN1CCCC1 | i
69 | CCN(CC)c1ccc(-n2nc3cc(C)c(NC(=S)NC(=O)c4cccs4)cc3n2)cc1 | i
70 | Cc1cc(C)cc(C(=O)Nc2ccc3oc(-c4cccnc4)nc3c2)c1 | i
71 | CS(=O)(=O)N1CCC(C(=O)NNC(=S)NC2CCCC2)CC1 | i
72 | O=C(CN(c1cccc(Cl)c1)S(=O)(=O)c1ccccc1)Nc1ccc2c(c1)OCCO2 | i
73 | COC(=O)c1cn(C(=O)COc2ccc(Br)cc2)c2ccccc12 | i
74 | C=CCn1c(SCC(=O)Nc2ccc(C)c([N+](=O)[O-])c2)nnc1-c1cc(Br)ccc1O | i
75 | Cc1ccccc1C(=O)NCCCN=C1NS(=O)(=O)c2ccccc21 | i

Given with each value named: 4 of the compounds above.
[70] Cc1cc(C)cc(C(=O)Nc2ccc3oc(-c4cccnc4)nc3c2)c1
  Mtb growth: i

[67] Cc1ccc(Cn2c(C(C)(C)C)nc3ccccc32)cc1
  Mtb growth: 1%

[75] Cc1ccccc1C(=O)NCCCN=C1NS(=O)(=O)c2ccccc21
  Mtb growth: i

[58] CC(C)(C)c1ccc(OC(=O)C2CCC(N3C(=O)C4CCCCC4C3=O)CC2)cc1 (stereo not drawn)
  Mtb growth: i

Other structures follow.
nr | smiles | Mtb growth
76 | CCOC(=O)c1cc(CC)sc1NC(=O)C#Cc1ccccc1 | 6%
77 | O=C(NC(=S)Nc1ccc(Cc2ccncc2)cc1)c1ccc(-c2ccccc2)cc1 | i
78 | COc1ccc(S(=O)(=O)Nc2ccc(Cl)c(Cl)c2)c(Cl)c1Cl | i
79 | O=C(Nc1cccc(-c2nnc(-c3ccco3)o2)c1)c1ccco1 | 10%
80 | O=S(=O)(c1ccc(NC(=S)NC2CCCC2)cc1)N1CCCC1 | i
81 | c1ccc(-c2oc3ncnc(N4CCOCC4)c3c2-c2ccccc2)cc1 | 4%
82 | CNC(=O)Cc1coc2ccc3ccccc3c12 | i
83 | O=C(NCCOc1ccccc1Cl)c1ccccc1I | 8%
84 | CC1CCCCC1NC(=O)CSc1nnc(CN2CCOCC2)n1C (stereo not drawn) | i
85 | CN(C)S(=O)(=O)c1ccc(NC(=S)NC(=O)Cc2ccccc2)cc1 | i
86 | CC(C)CNS(=O)(=O)c1ccc(OCC(=O)N2CCC(C(N)=O)CC2)c(Cl)c1 | i
87 | Cc1cc2nc(-c3cccc(NC(=O)c4ccco4)c3)oc2cc1C | 1%
88 | COc1ccccc1C1C(C(=O)c2sc(C)nc2C)=C(O)C(=O)N1CCCN1CCOCC1 (stereo not drawn) | i
89 | COc1ccc(C(=O)Nc2ccc3c(c2)OCCO3)c(OC)c1 | i
90 | O=C(CSc1nnc(COc2ccccc2)n1Cc1ccccc1)N1CCc2ccccc21 | 5%
91 | O=C(NC(=S)Nc1ccc2oc(=O)ccc2c1)c1cccc(OCc2ccccc2)c1 | i
92 | Cc1ccc(SCCNC(=O)c2ccc(CN3CCOCC3)cc2)cc1 | i
93 | CCCC(C)NC(=S)Nc1ccccc1 (stereo not drawn) | i
94 | CC(=O)N1CCN(c2ccccc2NC(=O)c2ccccc2F)CC1 | 1%
95 | O=C(CNC(=O)c1ccco1)OCc1ccc(Cl)cc1 | 10%
96 | Cc1nnc(SCC(=O)N2c3ccccc3CCc3ccccc32)s1 | i
97 | CS(=O)(=O)N(Cc1ccc(Br)cc1)c1ccccc1 | i
98 | Cc1nn(-c2ccccc2)c(C)c1-c1ccc(Cl)c(Cl)c1 | i
99 | COc1cc2c(cc1OC)CN(C(=O)CSc1nc(C)cc(C(F)(F)F)c1C#N)CC2 | 6%
100 | COC(=O)CN(c1cc(Cl)cc(Cl)c1)S(=O)(=O)c1ccc(C)cc1 | i
101 | COc1ccc(C(=O)NC(=S)NCc2ccc(-c3nc4ccccc4o3)cc2)cc1OC | i
102 | CCCCC(=O)Nc1cccc(NC(=O)c2ccc(C)c(Cl)c2)c1 | i
103 | Cn1nc(-c2ccc(N3CCCCC3)c(NS(=O)(=O)c3ccccc3)c2)c2ccccc2c1=O | i
104 | CCOC(=O)c1ccc(NC(=S)N2CCCC2)cc1 | i
105 | O=C(CN1C(=O)c2ccccc2C1=O)Nc1nccs1 | 1%
106 | CC(NC(=O)C(F)(F)F)C(=O)Nc1ccccc1-c1ccccc1 (stereo not drawn) | i
107 | COc1ccc(C2Nc3ccccc3NC3=C2C(=O)NC3)cc1OC (stereo not drawn) | i
108 | COc1ccc(Cl)cc1C(=O)NC(=S)Nc1cccc(NC(=O)C(C)C)c1 | i
109 | O=C(CSc1nnc(Cc2ccccc2)n1-c1ccc(F)cc1)c1ccccc1 | i
110 | Cc1ccc(NC(=O)c2cccc([N+](=O)[O-])c2)cc1CN1C(=O)c2ccccc2C1=O | i
111 | O=C(COc1ccc(S(=O)(=O)NCCc2ccccc2)cc1)N1CCCCC1 | i
112 | CSc1ccc(S(=O)(=O)Nc2ccc(S(=O)(=O)N3CCOCC3)cc2)cc1 | i
113 | COc1ccc(-c2nn(C)c(=O)c3ccccc23)cc1NC(=O)COc1ccc(C)cc1 | i
114 | CC(=O)Nc1ccccc1C(=O)N1CC2(C)CC1CC(C)(C)C2 (stereo not drawn) | 2%
115 | CCOC(=O)c1cnc2c(C)c(-c3ccc(C)cc3)nn2c1C | i
116 | N#CC1=C(N)SC(N)=C(C#N)C1c1cccc(C(F)(F)F)c1 | i
117 | O=C(Nc1ccc(-c2nc3ccccc3[nH]2)cc1)c1cc(-n2cnnc2)ccc1Cl | i
118 | COCCN1C=C(C(=O)OC)C(c2sccc2C)C(C(=O)OC)=C1 | 2%
119 | O=C(NCCN1CCOCC1)c1cccc(S(=O)(=O)N2CCCCC2)c1 | 2%
120 | COc1ccc(NC(=O)COc2ccc(C)cc2)c([N+](=O)[O-])c1 | i
121 | NC(=O)c1c(NC(=O)Nc2ccc(Cl)cc2)sc2c1CCCCCC2 | i
122 | COc1ccc(S(=O)(=O)N(CC(=O)Nc2c(C)cccc2C)c2ccc(C)cc2)cc1Br | i
123 | CCOc1ccccc1C(=O)N(CCC#N)CCC#N | i
124 | CCOC(=O)C1CCN(C(=O)c2ccc(CN(c3ccccc3)S(C)(=O)=O)cc2)CC1 | i
125 | Cc1nn2c(-c3cccc(NC(=O)c4cccs4)c3)nnc2c2ccccc12 | i

More results.
nr | smiles | Mtb growth
126 | Cc1ccc(OCC(=O)Nc2ccc3oc(-c4ccccc4Br)nc3c2)cc1 | i
127 | Cc1c(NC(=S)NC(=O)c2ccc(Cl)cc2)cccc1-c1nc2ncccc2o1 | i
128 | O=C(OCc1ccccc1Cl)c1ccc(-n2cnnc2)cc1 | i
129 | CC(C)c1ccccc1Oc1c(C(F)(F)F)oc2c(CN(C)C)c(O)ccc2c1=O | 6%
130 | CCc1ccccc1NC(=O)c1sc2nc3c(c(-c4ccco4)c2c1N)CCC3 | 10%
131 | COC(=O)/C=C(\C)NCCN/C(C)=C/C(=O)OC | 0%
132 | Cc1c(C(=O)OC(C)C)sc(NC(=O)C2CCCCC2)c1C(N)=O | i
133 | Cc1cccc(C(=O)NCCCN2CCN(CCCNC(=O)c3cccc(C)c3)CC2)c1 | 2%
134 | CC1(C)Cc2c(c(N3CCOCC3)nc3sc4c(=O)n(-c5ccccc5)cnc4c23)CO1 | 6%
135 | Cc1c(C(=O)Nc2ccccc2)sc2ncn(CC(=O)NCc3ccccc3)c(=O)c12 | i
136 | COc1cc2c(cc1NC(=O)c1cc(OC)c(OC)cc1OC)oc1ccccc12 | i
137 | CCc1sc(C(=O)NCc2ccco2)cc1Br | i
138 | COc1ccc(NC(=O)C2CC(=O)N(c3ccccc3)C2)c(OC)c1 (stereo not drawn) | i
139 | CC(Sc1nc(-c2ccccc2)cc(C(F)(F)F)n1)C(=O)N1CCN(c2ccccc2)CC1 (stereo not drawn) | 12%
140 | COc1ccc(N2C(N)=C(C#N)C(c3ccc(C)cc3C)C3=C2CCCC3=O)cc1 (stereo not drawn) | i
141 | Cc1ccc(OCCCCSc2nc(C)cc(=O)[nH]2)c(C)c1 | 6%
142 | O=C(Nc1ccc2c(c1)OCCO2)c1cccc(Cl)c1 | 0%

Source: PubChem

A portion of the library; count on the stated rates, not on these rows.
